gsp antag: antagonists of gsp mutant (McCune-Albright syndrome) | gsp-mutant cells, cAMP HTRF, 30 min; control for the full effect not named in the record | Potency, µM (series often up to 76.9 µM), inactives show at the top dose activity change, negative = inhibition, most hits filed as inhibitors | 340,000 compounds, 0.4% hits; active = falling curve of any shape with a large fitted effect; inconclusive = falling curve, mostly with a smaller effect; inactive = flat or rising curve; cell line not stated here;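 also: intracellular cAMP measured with PDE inhibitor Ro 20-1724 present during compound exposure; potency is read from the fitted curve at half-maximal effect; % is scaled to controls: 0 for no effect and ±100 for the full control effect; nearly all actives have a fitted effect of over 65% in size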
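HTRF cAMP measurement after 30 min RT detection following 30 min, 37C compound treatment alongside […] (added as 300 uM solution) in G418-selected cells seeded at 2000/well and grown 16–24 h.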
ClpP mod: qHTS Assay for Activators of ClpP | purified B. subtilis ClpP, FRET peptide cleavage, 20 min | Potency, µM (series often up to 57.5 µM), for the others: top-dose activity change, negative = active | 340,000 compounds, 1.9% hits; active = well fitted falling curve with a large enough effect; inconclusive = small, poorly fitted or top-dose-only effect; inactive = no such curve, though single readings can be large or run the other way; also: potency is read from the fitted curve at half-maximal effect; the source files actives as falling curves though it sought activators and does not explain the sign; nearly all actives have a fitted effect of over 65% in size; many hits overshoot -100%
Target sequence (P80244 whole entry, looked up): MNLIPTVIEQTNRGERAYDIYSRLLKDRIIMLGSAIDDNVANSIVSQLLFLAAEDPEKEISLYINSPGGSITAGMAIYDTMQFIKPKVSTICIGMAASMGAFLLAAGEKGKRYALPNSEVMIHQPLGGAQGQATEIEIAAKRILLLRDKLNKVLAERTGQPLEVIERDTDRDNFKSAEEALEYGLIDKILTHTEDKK
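FRET quenching reversal measured ClpP activation: 10 microg/mL B. subtilis ClpP at pH 8 with the FRET-FV decapeptide, read at 430 nm after 320 nm excitation. The 20-min minus 0-min signal was scaled between DMSO/no-enzyme wells and ADEP (5.8 microM final).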
TRPV1 PAM: enhances activation of the human vanilloid receptor TRPV1 | Q8NER1 | TRPV1-expressing cells, Fluo-8 calcium influx, capsaicin EC20 potentiation; host cell line not named in the record; control for the full effect not named in the record | potentiation, % at 8.33 µM | 320,000 compounds, 0.02% hits; active means potentiation above 80%; inconclusive means 30% to 80%; inactive means below 30%; also: 0% is about no effect
Target sequence (Q8NER1 whole entry, looked up): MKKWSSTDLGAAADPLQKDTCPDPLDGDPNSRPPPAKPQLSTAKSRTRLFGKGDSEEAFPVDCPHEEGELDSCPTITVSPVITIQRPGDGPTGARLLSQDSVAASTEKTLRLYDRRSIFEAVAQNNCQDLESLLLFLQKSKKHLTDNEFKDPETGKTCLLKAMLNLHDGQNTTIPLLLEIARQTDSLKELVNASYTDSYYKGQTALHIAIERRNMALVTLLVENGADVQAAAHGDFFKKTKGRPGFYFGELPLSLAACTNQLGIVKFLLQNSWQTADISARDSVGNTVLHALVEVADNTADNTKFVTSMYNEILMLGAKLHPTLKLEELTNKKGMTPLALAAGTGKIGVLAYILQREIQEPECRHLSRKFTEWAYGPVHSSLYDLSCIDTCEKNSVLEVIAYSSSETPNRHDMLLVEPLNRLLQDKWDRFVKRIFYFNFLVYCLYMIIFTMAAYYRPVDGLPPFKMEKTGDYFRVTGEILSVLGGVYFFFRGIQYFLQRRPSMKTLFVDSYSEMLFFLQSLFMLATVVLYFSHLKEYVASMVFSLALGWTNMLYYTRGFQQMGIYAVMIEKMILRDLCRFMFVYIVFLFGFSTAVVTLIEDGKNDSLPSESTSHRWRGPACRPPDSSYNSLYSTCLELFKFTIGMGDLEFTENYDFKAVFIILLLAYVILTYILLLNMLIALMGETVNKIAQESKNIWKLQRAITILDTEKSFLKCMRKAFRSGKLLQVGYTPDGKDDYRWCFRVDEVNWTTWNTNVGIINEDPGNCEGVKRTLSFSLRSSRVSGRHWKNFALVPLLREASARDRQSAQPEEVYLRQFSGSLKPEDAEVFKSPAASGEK
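TRPV1-expressing cells were cultured overnight at 35.5C and loaded with Fluo-8 calcium dye for 40 to 90 min at room temperature. After a 10 s baseline, compound was added and calcium influx was read kinetically for 3 min (ex 480/em 520 nm).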
D2 potentiator: potentiates the human D2 dopamine receptor allosterically; P14416; DiscoveRx D2 beta-arrestin cells, luminescence, 90 min; 100% = 57 uM dopamine signal; potentiation, % (concentration not given with the values); 360,000 compounds, 0.23% hits; AID 624464; active = potentiation of 50% or more; inconclusive = 30% to 50%; inactive = 30% or less;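 also: tested on top of an EC20 dose of dopamine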
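D2 cells co-treated with compound plus 50 nM dopamine (EC20) for 90 min at 37 deg C to detect potentiation. Beta-arrestin recruitment was read as enzyme-fragment luminescence after 1 h at ambient temperature. Full response was set by 57 uM dopamine.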
gsp agonist: gsp mutant agonism | gsp mutant cells, cAMP HTRF, 30 min; control for the full effect not named in the record | Potency, µM (highest dose often 76.9 µM), without a hit: at the top dose activation (cAMP increase), usual class: activators | 340,000 compounds, 0.13% hits; active = well fitted activation curve with a large enough effect; inconclusive = small, poorly fitted or top-dose-only effect, or another doubt; inactive = no such curve, though single readings can be large or run the other way; cell line not stated here;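 also: phosphodiesterase inhibitor Ro 20-1724 added with compounds to block cAMP breakdown; potency is read from the fitted curve at half-maximal effect; nearly all actives have a fitted effect of over 60% in size; about a fifth of the inactives were tested at one dose only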
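Cells stably selected in G418 were plated at 2000/well, grown 16-24 hr, then given compounds in DMSO with the PDE inhibitor […] (300 uM solution added) for 30 min at 37C; cAMP was read by HTRF.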
Sfp inh: blocks B. subtilis Sfp PPTase activity; Biochemical Sfp PPTase activity, qHTS; Potency, µM, for inactives: max response, negative = inhibition, hits mostly inhibitors; 310,000 compounds, 3.5% hits; active = well fitted inhibition curve with a large enough effect; inconclusive = small, poorly fitted or top-dose-only effect, or another doubt; inactive = no such curve, though single readings can be large or run the other way;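 also: the enzyme is Sfp with the accession as filed and its product quenches rhodamine fluorescence; potency is read from the fitted curve at half-maximal effect; 0% = enzyme reaction without inhibitor and -100% = no enzyme wells; top concentration of the series not given in the record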
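With Hepes-Na pH 7.6 buffer containing 10 mM MgCl2, Sfp (15 nM) modified BHQ-2-YbbR (12.5 uM) using rhodamine-CoA (5 uM). Two reads 30 minutes apart at 525/598 nm yielded each well's rate.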
Menin-MLL FL inh: inhibitors of human menin-MLL interaction, wild-type MLL peptide | Fluorescence polarization, fluorescein-MLL peptide displacement from menin | FP activity change, % at 61.4 µM | AID 1766 | 290,000 tested, under 10 active; inconclusive = falling polarisation curve, or a change in total fluorescence; inactive = total fluorescence flat and polarisation flat or rising; no compound was filed as active; the % refers to the polarisation; negative = inhibition;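 also: % of control where 0% means no effect; inhibitors lower the polarisation; unlabelled MLL peptide was the positive control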
Numbers without * were called inactive; & = joins results of further samples; [ ] = dose if it differs, or a comment. Rows were taken by chance, and some 5.1% of all compounds hit somewhere here.

COc1ccc(N(CC(=O)N2CCN(c3ccc(F)cc3)CC2)S(=O)(=O)c2c(C)n[nH]c2C)cc1 was read as gsp antag -9%, ClpP mod -0.8%, TRPV1 PAM -3, D2 potentiator -2, gsp agonist inconclusive, Sfp inh 8% and Menin-MLL FL inh 0.1.
For CCC(=O)N1N=C(c2ccc(C)o2)CC1c1ccc(Br)cc1 (stereo unspecified) the results were gsp antag 7%, ClpP mod -21%, TRPV1 PAM -19, D2 potentiator 13, gsp agonist -15%, Sfp inh 50µM* and Menin-MLL FL inh -1.1.
`O=c1[nH][nH]cc1C=Nc1cc(Cl)ccc1O` gave gsp antag 3%, ClpP mod 1.4%, TRPV1 PAM 17, D2 potentiator 3, gsp agonist -44%[inhibitor], Sfp inh 17% and Menin-MLL FL inh inconclusive.
For CC(C)(C)OC(=O)C[C@@H]1C/C=C\C[C@H](CC(=O)N(CCO)Cc2ccccc2)C(=O)N2CCC[C@@H]2COC1=O the results were gsp antag -6%, ClpP mod -0.9%, D2 potentiator 1 and gsp agonist -2%.
CCC(C(=O)NC1CCCC1)N(Cc1ccccc1Cl)C(=O)c1snc(C(N)=O)c1N (stereo unspecified) was read as gsp antag -3%, TRPV1 PAM 13, D2 potentiator -2, gsp agonist -17%[15.4 µM], Sfp inh 1% and Menin-MLL FL inh -2.1.
Screening CCn1cc(C(=O)O)c(=O)c2cc(F)c(N3CCN(C(=S)NC(=O)c4ccc(OC)cc4)CC3)cc21 returned gsp antag -6%, ClpP mod 3.8%, TRPV1 PAM -5, D2 potentiator -4, gsp agonist -22%, Sfp inh 7% and Menin-MLL FL inh 0.5.
Screening CCCCN(CCCC)S(=O)(=O)c1ccc(SCC(=O)OCC)c([N+](=O)[O-])c1 returned gsp antag -17%, ClpP mod 1.3%, TRPV1 PAM -1, D2 potentiator 6, gsp agonist -45%[inhibitor], Sfp inh 8% and Menin-MLL FL inh 0.0.
Screening CC(C)C(C(=O)C=[N+]=[N-])N1C(=O)c2ccccc2C1=O (stereo unspecified) returned gsp antag -6%, ClpP mod 0.8%, TRPV1 PAM 6, D2 potentiator 14, gsp agonist -25%, Sfp inh 11% and Menin-MLL FL inh 4.4.
For Cc1ccc(C(c2c(C)n(C)n(-c3ccccc3)c2=O)c2c(C)n(C)n(-c3ccccc3)c2=O)s1 the results were gsp antag -4%, TRPV1 PAM 22, D2 potentiator -11, gsp agonist -17%, Sfp inh 16% and Menin-MLL FL inh -6.1.
For O=C(COc1ccc(Cl)cc1Br)Nc1ccncc1 the results were gsp antag -21%, ClpP mod 0.0%, TRPV1 PAM -8, D2 potentiator -2, gsp agonist 14%[15.4 µM], Sfp inh 15% and Menin-MLL FL inh 3.7.
`Cc1ccc(-c2cc(C(=O)N3CCN(C(=O)c4ccco4)CC3)[nH]n2)c(C)c1` gave gsp antag 7%, ClpP mod 1.4%, TRPV1 PAM -10, D2 potentiator -23, gsp agonist -8%, Sfp inh 2% and Menin-MLL FL inh -2.0.
Cc1noc(NS(=O)(=O)c2ccc(N3CC(O)=C(c4ccccc4)C3=N)cc2)c1C was read as gsp antag 10%, ClpP mod -2.9%, TRPV1 PAM 6, D2 potentiator -8, gsp agonist inconclusive, Sfp inh 12% and Menin-MLL FL inh 1.8.

Brought forward from above: two compounds, followed by the next part.
`Cc1ccc(-c2cc(C(=O)N3CCN(C(=O)c4ccco4)CC3)[nH]n2)c(C)c1` gave gsp antag 7%, ClpP mod 1.4%, TRPV1 PAM -10, D2 potentiator -23, gsp agonist -8%, Sfp inh 2% and Menin-MLL FL inh -2.0.
Cc1noc(NS(=O)(=O)c2ccc(N3CC(O)=C(c4ccccc4)C3=N)cc2)c1C was read as gsp antag 10%, ClpP mod -2.9%, TRPV1 PAM 6, D2 potentiator -8, gsp agonist inconclusive, Sfp inh 12% and Menin-MLL FL inh 1.8.
`Cc1cc(NC(=O)c2ccc(Br)c(S(=O)(=O)N3CCCC3)c2)no1` gave gsp antag -26%, ClpP mod -0.5%, TRPV1 PAM -11, D2 potentiator -17, gsp agonist -29%, Sfp inh 1% and Menin-MLL FL inh 1.9.
`C[C@H]1CN([C@@H](C)CO)C(=O)c2cc(Br)cnc2O[C@@H]1CN(C)S(C)(=O)=O` gave ClpP mod -2.9%, D2 potentiator 1 and gsp agonist -54%[inhibitor].
Screening COCCCNCCCCSc1ccc(Cl)cc1 returned gsp antag 18%, ClpP mod 0.3%, TRPV1 PAM 9, D2 potentiator -18, gsp agonist -11%[15.4 µM], Sfp inh -8% and Menin-MLL FL inh 3.5.
`CC(C)(C)OC(=O)N[C@@H](Cc1ccccc1)C(=O)N1CCC(C(=O)N[C@@H](Cc2c[nH]c3ccccc23)C(=O)O)CC1` gave gsp antag 5%, ClpP mod 1.0%, TRPV1 PAM -1, D2 potentiator -7, gsp agonist -23%, Sfp inh 12% and Menin-MLL FL inh -0.4.
CC(Sc1nc2c(c(=O)[nH]1)CCCC2)C(=O)Nc1ccccc1C#N (stereo unspecified) was read as gsp antag -14%, TRPV1 PAM -20, D2 potentiator -5, gsp agonist -4%, Sfp inh 7% and Menin-MLL FL inh -20.
For CSc1cccc(CN2CCCC(CO)(Cc3cccc(Cl)c3)C2)c1 (stereo unspecified) the results were gsp antag 1%, ClpP mod -1.1%, TRPV1 PAM -5, D2 potentiator -5, gsp agonist -36%, Sfp inh -7% and Menin-MLL FL inh inconclusive.
`Cn1c(OCc2cccnc2)nc2c1c(=O)n(Cc1ccccc1)c(=O)n2C` gave gsp antag -27%, ClpP mod -1.6%, TRPV1 PAM -2, D2 potentiator -11, gsp agonist 5%, Sfp inh 4% and Menin-MLL FL inh -4.3.
Screening CC1(C)[C@H](C(=O)O)N2C(=O)C[C@H]2S1(=O)=O returned gsp antag 13%, ClpP mod 2.3%, D2 potentiator 6, Sfp inh 1% and Menin-MLL FL inh -0.7.
`O=C(CN1CCc2ccccc21)NC(=O)NC1CCCCC1` gave gsp antag -3%, ClpP mod 3.0%, TRPV1 PAM -21, D2 potentiator -13, gsp agonist -20%, Sfp inh 6% and Menin-MLL FL inh -0.5.
Screening COc1ccc(NS(=O)(=O)c2ccc(N3CCOCC3)c(NC(=O)c3cccc(F)c3)c2)cc1 returned gsp antag -12%, ClpP mod inconclusive, TRPV1 PAM 7, D2 potentiator 5, gsp agonist 2%, Sfp inh -10% and Menin-MLL FL inh 9.7.
`C=CCN1c2ccccc2[C@]23C[C@@H](C(=O)OC)N(C(=O)NC4CCCC4)C2=NC(C(=O)OC)=C(C(=O)OC)[C@H]13` gave gsp antag 3%, ClpP mod -0.6% and D2 potentiator -4.
For Cc1ccccc1S(=O)(=O)c1c(C)cc(C)n(C(C)C)c1=O the results were gsp antag inconclusive, ClpP mod 0.3%, TRPV1 PAM -8, D2 potentiator -11, gsp agonist -4%, Sfp inh -20% and Menin-MLL FL inh -0.8.
For CC(C)c1ccc(CCNC(=O)CSC(=S)N2CCCC2)cc1 the results were gsp antag -2%, ClpP mod -7.9%, TRPV1 PAM -24, D2 potentiator -18 and gsp agonist -4%[15.4 µM].
For COc1ccc(-n2nc(C(=O)NCC(=O)N3CC(C)CC(C)C3)c3ccccc3c2=O)cc1OC (stereo unspecified) the results were gsp antag -8%, TRPV1 PAM 5, D2 potentiator 22, gsp agonist 7% and Sfp inh 14%.
For COc1ccc(NC(C)=[N+](C)CCNS(=O)(=O)c2ccc(Cl)cc2)cc1Cl the results were gsp antag 5%, ClpP mod 1.1%, TRPV1 PAM -3, D2 potentiator -5, gsp agonist -5%, Sfp inh -4% and Menin-MLL FL inh 1.4.
For COc1cc(O)c(C(CCN2CCOCC2)c2ccc3c(c2)OCO3)c(OC)c1 (stereo unspecified) the results were gsp antag 0%, ClpP mod 1.6%, TRPV1 PAM 2, D2 potentiator -21, Sfp inh -4%&4% and Menin-MLL FL inh -0.8&0.0.
COc1ccc(NC(=O)C2CCC(=O)N2C(=O)OCc2ccccc2)cc1 (stereo unspecified) was read as gsp antag 5%, ClpP mod -2.0%, TRPV1 PAM 7, D2 potentiator -9, gsp agonist -1%, Sfp inh 4% and Menin-MLL FL inh 4.5.
Cc1cc(C)cc(C(=O)N/N=C/c2ccoc2)c1 was read as gsp antag 1%, ClpP mod -2.0%, TRPV1 PAM 16, D2 potentiator -31, gsp agonist -14% and Sfp inh 27%.
Screening Nc1ccccc1Sc1ccc(C(=O)c2ccccc2C(=O)O)cc1[N+](=O)[O-] returned gsp antag -2%, TRPV1 PAM -3, D2 potentiator -13, gsp agonist 20%[15.4 µM], Sfp inh inconclusive and Menin-MLL FL inh 21.
`CCOC(=O)c1ccc(NCc2nc3ccccc3[nH]2)cc1` gave gsp antag -2%, ClpP mod -7.1%, TRPV1 PAM -10, D2 potentiator -1, gsp agonist 2%, Sfp inh 7% and Menin-MLL FL inh 2.3.
Screening Cn1c(CNC(=O)Nc2ccccc2Cl)nnc1SCc1ccccc1 returned gsp antag 4%, ClpP mod -1.8%, TRPV1 PAM -6, D2 potentiator -21, gsp agonist 23%, Sfp inh 6% and Menin-MLL FL inh 0.5.
NC(=O)CSc1nc2c(sc3ccccc32)c(=O)n1CCCC(=O)NCC1CCCO1 (stereo unspecified) was read as gsp antag -5%, D2 potentiator -2, gsp agonist 9%[15.4 µM], Sfp inh 25% and Menin-MLL FL inh 2.1.
`Cn1cc(C2CC(c3ccccc3)=NN2C(=O)c2ccccc2)c2ccccc21` (stereo unspecified) gave gsp antag -10%, ClpP mod -19%, TRPV1 PAM -15, D2 potentiator -4, gsp agonist 7%[15.4 µM], Sfp inh -21% and Menin-MLL FL inh 5.2.
Screening O=C(Nc1nc2ccccc2n1CCN1CCOCC1)c1ccccc1 returned gsp antag -3%, ClpP mod -1.3%, TRPV1 PAM -17, D2 potentiator -10, gsp agonist -9%[15.4 µM], Sfp inh 5% and Menin-MLL FL inh -1.1.
`Cc1c(OCC(=O)NC(Cc2ccc(Cl)cc2)C(=O)O)ccc2c3c(c(=O)oc12)CCC3` (stereo unspecified) gave gsp antag 0%, ClpP mod 4.7%, TRPV1 PAM 8, D2 potentiator -26, Sfp inh 19% and Menin-MLL FL inh 0.0.
For O=C1C2C3C=CC(CC3)C2C(=O)N1c1cccc(C(F)(F)F)c1 (stereo unspecified) the results were gsp antag 6%, ClpP mod -0.8%, TRPV1 PAM -16, D2 potentiator -21, gsp agonist 9%[15.4 µM], Sfp inh 5% and Menin-MLL FL inh -13.

Bioassay records from PubChem BioAssay.
